HIV Env fusion: blocks HIV Env-driven cell-cell fusion. AID 651610. inhibition, % at 12.3 µM. HeLa-JRFL Env/CEM21 cell fusion, luciferase. hit rate 1.1% among 360,000;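 active means mean replicate inhibition score of at least 50 and every replicate individually at or above 50; inconclusive means only one of the two criteria met; inactive means mean below 50 and not all replicates reaching 50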;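 further: 0% = plate neutral controls and 100% = maraviroc near 300 nM; one replicate is shown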
MT1-MMP act inh: inhibitors of human MT1-MMP activation | P50281 | HT1080 RFP-PRO-GFP cells, GFP/RFP ratio fluorescence, overnight; percent of plate control window, DMSO zero | GFP/RFP ratio change, % at 20 µM | hit rate 0.061% among 360,000;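 active means GFP/RFP ratio change of at least 30% with cell ATP level not reduced by more than half and red fluorescence within 50% of control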; further: strong numbers were not always called active
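Read-out: GFP/RFP fluorescence ratio; Test system: RFP-PRO-GFP reporter HT1080 cells; Compound dosing: single-point 20 µM compound, 1% DMSO; Times: overnight compound exposure at 37 °C.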
Rce1 inh: yeast Ras-converting enzyme inhibition | AID 2563 | hit rate 0.27% among 290,000 | yeast membranes, quenched prenylated peptide cleavage fluorescence | Q03530 | calls only;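 active means fall in fluorescence gain of 50% or more versus controls, with final raw signal at or below 3038400; inconclusive means same 50% fall but final raw signal above 3038400; inactive means fall in fluorescence gain under 50%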;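 further: plate controls were neutral control wells for no effect and wells lacking membranes for full effect; tested at 10 µM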
Target sequence (Q03530 whole entry, looked up): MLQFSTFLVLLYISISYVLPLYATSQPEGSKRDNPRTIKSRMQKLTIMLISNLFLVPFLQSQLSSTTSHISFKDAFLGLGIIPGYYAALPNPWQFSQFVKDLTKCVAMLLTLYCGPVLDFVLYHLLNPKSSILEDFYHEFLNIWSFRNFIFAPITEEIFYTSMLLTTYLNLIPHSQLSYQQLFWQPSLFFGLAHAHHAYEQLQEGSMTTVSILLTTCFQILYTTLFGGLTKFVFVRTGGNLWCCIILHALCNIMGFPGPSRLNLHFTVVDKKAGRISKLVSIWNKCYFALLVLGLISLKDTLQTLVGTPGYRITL
Yeast UUG start: alters start codon recognition fidelity in yeast; S. cerevisiae UUG-firefly luciferase reporter, luminescence/redox ratio; activity score, % at 18.7 µM; hit rate 0.13% among 350,000; AID 602363;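 active means replicate mean at a twofold rise or more, about +100% in these data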;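 further: firefly luciferase made from a UUG start codon reports start codon fidelity; reporter light over untreated wells divided by growth signal over untreated wells; some hits fall short of that in this replicate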
CSC inhib: cancer stem cell inhibition | cancer stem cell-like cells viability, luminescence | inhibition, % at 7.5 µM | hit rate 1.1% among 300,000;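 active means mean at 75% or more and at least half the replicates too; inconclusive means mean and replicates disagree; tested in HMLE shEcad cells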;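 further: 0% = median of negative and 100% = median of positive control wells; the first replicate is given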
eIF4H FP inh: inhibitors of RNA binding by human eIF4H. Q15056. eIF4H fluorescence polarization binding assay. inhibition, % at 35 µM. hit rate 0.94% among 290,000;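 active means 50% or more with normal probe brightness, or confirmed in later tests; inconclusive means above 50% with abnormal brightness, or retests that disagree; inactive means below 50% or failed in later tests; about a fifth of its hits are not listed in these tables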;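 further: calls also rest on retests at 20 µM and on dose response follow-up; 0% = protein and probe with vehicle and 100% = probe without protein; strong numbers were not always called active; many hits fall short of the cut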
PABP FP inh: blocks human PABP binding to poly(A) RNA | P11940 | fluorescence polarization | inhibition, % at 35 µM | hit rate 1% among 290,000;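 active means 50% or more with normal probe brightness, or confirmed in later tests; inconclusive means above 50% with abnormal brightness, or retests that disagree; inactive means below 50% or failed in later tests; about a fifth of its hits are not listed in these tables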;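 further: calls also rest on retests at 20 µM and on dose response follow-up; controls were probe without protein and protein plus probe with vehicle; some compounds called inactive have numbers as strong as hits; many hits fall short of the cut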
MT1-MMP act inh RFP: further read-out of MT1-MMP act inh, marked with its call; RFP signal change, %; measured here: RFP expression control read;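 0 = vehicle wells; hits needed this value within 50% of zero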
The depositor's hits bear a star; i = inactive; ? = inconclusive; nt = no result given. Compounds were not picked by outcome; overall some 2.9% were active at least once.

Preview, 5 compounds:
SMILES	HIV Env fusion	MT1-MMP act inh	MT1-MMP act inh RFP	Rce1 inh	Yeast UUG start	CSC inhib	eIF4H FP inh	PABP FP inh
Cc1ccc(C)c(Nc2ncnc3nc[nH]c23)c1	-10	-1	2	i	-19	-17	-16	4
COc1cc(C=O)ccc1OCCOCCOc1ccccc1Cl	nt	-2	-5	i	0	-5	-10	-9
Cc1cc(C)n2nc(-c3ccc(Br)cc3)cc2n1	-135	-2	2	i	-25	5	-7	6
COC(=O)c1c(NC(=O)C(=O)N2CCOCC2)sc2c1CCC2	2	4	3	i	-2	-7	4	2
Cc1nc2ccc(C(=O)N3CCN(c4ccccn4)CC3)cc2s1	nt	-1	-1	i	-2	nt	8	2

This part in full, repeating the preview:
SMILES	HIV Env fusion	MT1-MMP act inh	MT1-MMP act inh RFP	Rce1 inh	Yeast UUG start	CSC inhib	eIF4H FP inh	PABP FP inh
Cc1ccc(C)c(Nc2ncnc3nc[nH]c23)c1	-10	-1	2	i	-19	-17	-16	4
COc1cc(C=O)ccc1OCCOCCOc1ccccc1Cl	nt	-2	-5	i	0	-5	-10	-9
Cc1cc(C)n2nc(-c3ccc(Br)cc3)cc2n1	-135	-2	2	i	-25	5	-7	6
COC(=O)c1c(NC(=O)C(=O)N2CCOCC2)sc2c1CCC2	2	4	3	i	-2	-7	4	2
Cc1nc2ccc(C(=O)N3CCN(c4ccccn4)CC3)cc2s1	nt	-1	-1	i	-2	nt	8	2
O=S(=O)(NC1=NCCCCC1)c1ccc(F)cc1F	0	0	3	nt	-7	-2	nt	nt
CC1CC(C)CN(C(=O)C2CCN(S(=O)(=O)c3ccc4c(c3)CC(C)N4C(=O)C3CC3)CC2)C1 (stereo unspecified)	5	-4	-2	i	7	-4	9	-1
COc1cc(-c2coc3c(C(=O)NC4CCCCC4)cccc23)ccc1O	-7	-2	-16	nt	-13	nt	nt	nt
O=C1CSC(c2ccccc2)N1c1ccc(F)cc1F (stereo unspecified)	8	-5	-2	i	-23	-3	11	-1
O=C(OCC(=O)N(C1CCCCC1)C1CCCCC1)c1ccc(O)cc1	7	-3	-4	i	-5	20	2	4
COC(=O)C(NC(=O)c1ccccc1)c1ccccc1 (stereo unspecified)	-48	-6	-2	i	-8	1	2	11
CSc1ccc(CCNC(=O)CCc2nnc3ccc(N4CCCCC4)nn23)cc1	-4	0	-5	i	-27	-12	-12	-6
Cc1cc(C)c2oc(-c3cccc(NC(=O)c4ccc(F)cc4)c3)nc2c1	nt	-3	3	i	-8	31	-2	-8
O=C(Nc1ccc2c(c1)OCCO2)C(c1ccnc2ccccc12)N1CCN(c2ccc(C(F)(F)F)cn2)CC1 (stereo unspecified)	3	2	-15	nt	-12	nt	nt	nt
CN1CCN(c2ccccc2NC(=O)c2cccc([N+](=O)[O-])c2)CC1	-8	-1	-1	i	-13	nt	-4	-1
COC(=O)c1ccc(N2CCN(S(=O)(=O)c3ccc4ccccc4c3)CC2)c([N+](=O)[O-])c1	40	18	-9	i	2	-22	4	-5
Cc1cc(N2CCC(C)CC2)n2nc(C)c(-c3ccccc3)c2n1	-10	-4	-5	nt	-5	53	-2	-6
CC(C)(C)c1ccc(NC(=O)c2c(F)cccc2Cl)cc1	-4	3	2	i	-12	12	6	2
Cc1ccc(OCCn2cc(/C(N)=N/O)c3ccccc32)cc1C	-62	11	-5	i	-4	-1	9	13
O=C(c1cc(COc2cccc(C(F)(F)F)c2)on1)N1CCC(c2ccccc2)CC1	6	2	2	i	1	36	14	-16
O=C(CN1CCN(c2nc(-c3ccccc3)cs2)CC1)NNC(=O)c1ccc(Br)cc1	-34	12	-5	i	-6	3	0	4
COC(=O)c1cc2sccc2n1CC(=O)Nc1cccc(SC)c1	nt	2	1	i	nt	1	2	-1
COC(=O)c1sccc1NC(=S)N1CCC(C)CC1	44	-3	-1	i	nt	-11	-3	-5
CCC(C)n1cnc2c(c1=O)c1nc3ccccc3nc1n2Cc1ccc(OC)cc1 (stereo unspecified)	-35	0	-12	i	9	4	1	3
COc1cc([N+](=O)[O-])c2ncsc2c1	-42	2	4	i	nt	-13	4	18
O=C(Nc1nc(OCC(F)(F)F)cnc1/C=C\c1ccccc1)c1ccccc1	-8	4	-3	nt	-7	nt	nt	nt
O=C(N1CCCCCC1)N1CCN(S(=O)(=O)c2cccc([N+](=O)[O-])c2)CC1	8	0	-6	i	-15	18	-5	9
COc1ccc(/C=C(\NC(=O)c2cccs2)C(=O)Nc2ccc(C)cc2)cc1OC	-11	5	3	i	-15	-8	-4	-13
CCN(CC)c1ccc(CNc2nc3ccccc3n2C)cc1	-2	0	1	i	nt	31	-4	0
O=C1NC(=S)S/C1=C\c1cc2ccccc2nc1N1CCCCC1	17	-49	-35	i	-32	114*	2	-5
CSc1ccc(NC(N)=S)cc1	8	0	4	i	nt	-11	-7	-2
CCOC(=O)c1ccc(NC(=S)NNC(=O)C2(C)CC2(Cl)Cl)cc1 (stereo unspecified)	nt	14	-2	i	-12	14	6	3
COC(=O)c1ccc(N2NC(=O)/C(=C/c3cc(OC)c(O)c(OC)c3)C2=O)cc1	-6	0	3	i	4	42	?	?
COC(=O)c1ccc(Nc2nc(N3CCOCC3)nc(N3CCOCC3)n2)cc1	32	6	3	i	-11	-27	-14	-6
CC1=C(C(=O)OCc2ccccc2)C(c2cccs2)N2C(=O)CCSC2=N1 (stereo unspecified)	10	-3	-8	i	nt	7	0	-2
Cc1cc(C(=O)OCC(N)=O)c(C)n1-c1ccccc1	23	0	-5	i	-7	-5	3	-8
OC(COc1ccc(F)cc1)CN1CCN(CC(O)COc2ccc(F)cc2)CC1 (stereo unspecified)	-1	-2	-6	i	-5	20	-2	-7
O=C(NC(=S)Nc1cccc(C(F)(F)F)c1)c1csnn1	10	3	2	i	nt	9	-5	0
CC1=C(C#N)c2nc(N)c(C#N)c(C)c2/C1=C\c1ccc(-c2ccccc2C(=O)O)o1	7	49	52	i	nt	nt	86*	65*
Cc1c(C(=O)N2CCN(C(=O)c3ccco3)CC2)sc2nc(-c3ccc(F)cc3)cn12	16	-1	-2	i	-14	-7	-10	-7

Compound profiles, as listed above. Values in the order: HIV Env fusion, MT1-MMP act inh, MT1-MMP act inh RFP, Rce1 inh, Yeast UUG start, CSC inhib, eIF4H FP inh, PABP FP inh
Record of `COC(=O)c1cc2sccc2n1CC(=O)Nc1cccc(SC)c1` = nt, 2, 1, i, nt, 1, 2, -1
Record of `O=C(CN1CCN(c2nc(-c3ccccc3)cs2)CC1)NNC(=O)c1ccc(Br)cc1` = -34, 12, -5, i, -6, 3, 0, 4
Record of `CC1=C(C#N)c2nc(N)c(C#N)c(C)c2/C1=C\c1ccc(-c2ccccc2C(=O)O)o1` = 7, 49, 52, i, nt, nt, 86*, 65*
Record of `COC(=O)c1sccc1NC(=S)N1CCC(C)CC1` = 44, -3, -1, i, nt, -11, -3, -5
Record of `COc1ccc(/C=C(\NC(=O)c2cccs2)C(=O)Nc2ccc(C)cc2)cc1OC` = -11, 5, 3, i, -15, -8, -4, -13

Additional records follow.
SMILES	HIV Env fusion	MT1-MMP act inh	MT1-MMP act inh RFP	Rce1 inh	Yeast UUG start	CSC inhib	eIF4H FP inh	PABP FP inh
COc1cc(/C=N/OCC(=O)NC2CCCCC2)ccc1OCc1ccccc1	-28	-10	-24	i	-8	2	-8	4
CN(C)CCNC(=O)/C(=C/c1ccc(-c2ccc(Cl)cc2)o1)NC(=O)c1ccccc1	5	-10	-6	i	13	21	-8	-2
CC(C)Cc1nc2ccccc2n1CCc1ccccc1	-22	-2	1	nt	nt	nt	-4	7
Cc1cc(C(=O)N/N=C/c2c(C)nn(-c3ccccc3)c2C)c(C)o1	12	5	1	i	-4	-2	5	11
COc1cc2ccccc2cc1C(=O)N(CCN(C)C)c1nc2c(F)cccc2s1	22	1	4	i	2	0	-9	6
O=C(/C(=C/c1cccnc1)n1ccnc1)c1ccc(Cl)cc1Cl	-26	-7	-7	i	nt	-3	-4	-8
COc1ccc(NC(=O)c2cc3c(CO)cnc(C)c3oc2=Nc2cc(OC)cc(OC)c2)cc1	12	-4	1	i	-15	-3	7	9
CCCCC(O)(CCCC)C(=O)NN(C(=O)OCC)c1ccccc1	-43	1	7	i	nt	-10	1	1
CCNc1ccc(C(=O)OCC)cc1NC(=O)c1cccc(N(C)C)c1	nt	12	-13	i	nt	nt	-2	0
NC(=O)c1nsc(C(=O)N(c2ccc3c(c2)OCO3)C(C(=O)NCC2CCCO2)c2ccc(F)cc2)c1N (stereo unspecified)	-6	-2	0	i	nt	-12	2	4
CCOP(=O)(O)c1cccc(OCCOCCOc2cccc(P(=O)(O)OCC)c2)c1	4	0	1	i	11	0	-4	8
O=C(COC(=O)c1ccc(Br)cc1)NCC1CCCO1 (stereo unspecified)	nt	1	2	nt	11	-3	nt	nt
C=CCN1c2ccccc2[C@]23C[C@@H](C(=O)OC)N(C(=O)c4cccs4)C2=NC(C(=O)OC)=C(C(=O)OC)[C@H]13	-11	-1	3	i	-4	0	-8	2
CC(C)(C)C1c2[nH]c3ccccc3c2CCN1Cc1cccc(OCCO)c1 (stereo unspecified)	7	-3	5	i	-4	-10	4	6
Cc1ccc(F)cc1NC(=O)C1CCCN(c2ncccn2)C1 (stereo unspecified)	nt	1	-3	i	nt	-8	2	4
CCN(CC(=O)Nc1c(F)cccc1F)C(=O)C1CC(=O)N(c2ccc3c(c2)OCCO3)C1 (stereo unspecified)	nt	0	5	i	-15	-13	nt	nt
CC(=O)Nc1ccc(S(=O)(=O)Nc2ccc(=O)n(Cc3ccc(Cl)c(Cl)c3)c2)cc1	9	1	1	i	-32	-8	4	26
CCCCC(=O)N(c1ccc(OCC)cc1)C1C=CS(=O)(=O)C1 (stereo unspecified)	nt	-1	2	i	-6	-12	-2	6
COCCn1c(SCc2nnc(-c3ccc(OC)c(OC)c3)o2)nnc1-c1ccncc1	25	-1	-13	i	-7	-10	-10	6
CN1C(=O)NC(NC(=O)c2ccco2)(C(F)(F)F)C1=O (stereo unspecified)	-15	0	4	i	-22	1	2	12
COC(=O)C1=CO[C@@H](O[C@@H]2OC(CO)[C@@H](O)[C@@H](O)[C@@H]2O)C2C1CC[C@]2(C)O (stereo partly specified)	nt	2	-1	i	-10	-9	nt	nt

Ordered by SMILES length (lowest first): 3 of the compounds above.
SMILES	HIV Env fusion	MT1-MMP act inh	MT1-MMP act inh RFP	Rce1 inh	Yeast UUG start	CSC inhib	eIF4H FP inh	PABP FP inh
COc1cc(/C=N/OCC(=O)NC2CCCCC2)ccc1OCc1ccccc1	-28	-10	-24	i	-8	2	-8	4
CCOC(=O)c1ccc(NC(=S)NNC(=O)C2(C)CC2(Cl)Cl)cc1 (stereo unspecified)	nt	14	-2	i	-12	14	6	3
CN(C)CCNC(=O)/C(=C/c1ccc(-c2ccc(Cl)cc2)o1)NC(=O)c1ccccc1	5	-10	-6	i	13	21	-8	-2

High-throughput results from PubChem.
